# UCH37 inh: blocks the human deubiquitinase UCH37. Q9Y5K5. purified proteasome/UCH37, Ub-AMC cleavage fluorescence. inhibition, % (no concentration beside the values). actives 0.33% (n = 330,000). AID 588478;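 active means mean of two replicates above 20%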;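 further: 0% = compound-free wells with enzyme and 100% = wells lacking proteasome; stock transfer was 100 nL into about 20 µL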
# Target sequence (Q9Y5K5 whole entry, looked up): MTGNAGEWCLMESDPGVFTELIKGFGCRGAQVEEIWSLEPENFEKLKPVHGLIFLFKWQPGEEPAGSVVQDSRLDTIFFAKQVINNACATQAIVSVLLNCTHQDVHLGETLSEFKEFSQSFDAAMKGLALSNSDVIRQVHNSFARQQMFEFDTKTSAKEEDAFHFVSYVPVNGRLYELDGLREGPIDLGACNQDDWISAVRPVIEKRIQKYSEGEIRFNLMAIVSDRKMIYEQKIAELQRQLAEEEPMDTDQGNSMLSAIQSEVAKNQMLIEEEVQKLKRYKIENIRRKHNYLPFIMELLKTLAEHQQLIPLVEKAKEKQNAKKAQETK
#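 Schedule: 30 min plus 25 min, room temperature / Material: human UCH37 within purified proteasomes / Technique: AMC fluorescence intensity at 355/460 nm / Buffer or medium: pH 7.4 Tris-HCl (50 mM) with ovalbumin, ATP-MgCl2, DTT / Controls: wells without proteasome as full block, compound-free enzyme plus substrate as uninhibited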
# ALR H2O2 inh: inhibitors of human sulfhydryl oxidase ALR | actives 3.8% (n = 290,000) | P55789 | inhibition, % (no concentration beside the values) | purified ALR, DTT oxidation, H2O2 HRP-luminol luminescence;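 active means mean and each replicate at 75% or more; inconclusive means only one of the two met; inactive means neither met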;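 further: stock transfer was 7.5 nL into about 7.5 µL; 0% = neutral wells and 100% = wells with inactivated enzyme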
# FGF22 binding: binders of recombinant human FGF22 by thermal shift; calls only at 9.99 µM; Q9HCT0; SYPRO orange fluorescence; percent of sucrose octasulfate shift, DMSO zero; AID 651658; actives 1.5% (n = 340,000);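 active means melting point raised past a set limit in the mean and every replicate; inconclusive means no clear call; three in four hits are not shown here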
# Target sequence (Q9HCT0 whole entry, looked up): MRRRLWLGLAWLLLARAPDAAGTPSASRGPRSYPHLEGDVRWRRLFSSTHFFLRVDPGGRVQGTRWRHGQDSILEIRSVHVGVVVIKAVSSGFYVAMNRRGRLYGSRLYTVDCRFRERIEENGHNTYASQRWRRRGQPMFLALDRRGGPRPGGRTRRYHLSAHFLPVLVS
# HNF4A DNA FP: change in binding of human HNF4 alpha to DNA; HNF4a-FITC DNA binding, fluorescence polarization, 1 h; activity change, % at 10 µM; actives 0.3% (n = 360,000); AID 1224865; in the data active means activity change above about 30%, passing the limit was not always enough;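 further: controls were the assay level and a saturating level of protein; the project sought stronger binding though the title names inhibitors; some compounds called inactive have numbers as strong as hits; positive values seem to mean higher polarization but the record does not say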
# Target sequence (P41235 whole entry, looked up): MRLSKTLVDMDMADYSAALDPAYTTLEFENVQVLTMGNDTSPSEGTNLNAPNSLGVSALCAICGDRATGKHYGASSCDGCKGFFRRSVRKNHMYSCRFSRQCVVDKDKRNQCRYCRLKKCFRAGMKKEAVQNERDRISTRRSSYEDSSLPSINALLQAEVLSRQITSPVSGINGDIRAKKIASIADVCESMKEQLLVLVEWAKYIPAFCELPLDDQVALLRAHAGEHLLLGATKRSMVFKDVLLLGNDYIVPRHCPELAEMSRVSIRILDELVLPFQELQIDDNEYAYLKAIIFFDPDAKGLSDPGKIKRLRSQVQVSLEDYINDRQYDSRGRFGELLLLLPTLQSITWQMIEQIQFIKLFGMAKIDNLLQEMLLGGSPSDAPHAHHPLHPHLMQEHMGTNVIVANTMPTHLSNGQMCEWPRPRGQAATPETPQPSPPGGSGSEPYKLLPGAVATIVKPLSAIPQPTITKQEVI
# B2AR ag: activates human beta-2 adrenergic receptor causing internalization; actives 0.43% (n = 340,000); AID 504454; P07550; response, % (concentration not given with the values); Am2.2-beta2AR cells, FAP receptor internalization, flow cytometry; reference of the scale not given here;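 active means response above a set limit, near 3 SD of response in nonfluorescent compounds, cut at about 42% in these data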;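 further: stock transfer was 100 nL into about 11 µL; a reference agonist was the positive control; negative values mostly stem from fluorescent compounds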
# Ecoli growth: blocks Escherichia coli growth | OD600, 23 h; active compounds read low | AID 1053175 | OD600 absorbance (no concentration beside the values) | actives 0.21% (n = 330,000);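 active means OD600 absorbance below the run mean of sample wells minus 3.6 SD, in any replicate, cut at about 0.56 in these data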;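 further: stock transfer was 300 nL into about 60 µL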
# LANA-H2A inh: blocks KSHV LANA binding to histone H2A/H2B. Q9QR71. actives 0.6% (n = 320,000). AID 2629. cell-free LANA-H2A/H2B peptide, fluorescence polarization. inhibition, % (no concentration beside the values); in the data active means inhibition mostly above about 10%, no sharp cut-off; inactive means mostly below about 6.7%;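 further: stock transfer was 7.5 nL into about 10 µL; 0% = median of vehicle wells and 100% = median of positive control wells; one replicate is shown; the record names a cut of 25% in any replicate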
# An asterisk follows results filed as active; i = inactive; ? = inconclusive; · = no result given. The list is partial; count on the stated rates, not on these rows.
SMILES,UCH37 inh,ALR H2O2 inh,FGF22 binding,HNF4A DNA FP,B2AR ag,Ecoli growth,LANA-H2A inh
CCN(CC)CCN(C(=O)CN1C(=O)c2ccccc2C1=O)c1nc2cc3c(cc2s1)OCO3,2.8,3,i,1.0,-7,0.72,0.6
O=C(NCC(=O)N1CCCCCC1)c1ccc(Br)cc1,2.5,-14,i,-1.2,2,0.71,-1.4
CCCn1c(N)c(C(=O)CN2CCN(S(=O)(=O)c3cccc(Cl)c3)CC2)c(=O)[nH]c1=O,3.4,2,i,0.5,1,0.67,-5.6
CNC(=O)/C(=C/c1ccc2c(c1)OCO2)NC(=O)c1ccc(Br)cc1,4.6,-2,·,-2.5,-9,0.65,-0.7
COc1ccc(/C=C2\SC(=S)N(CCC(=O)N3CCCCC3)C2=O)cc1,·,-4,i,-0.4,4,·,-0.3
CCc1ccc(N(C(=O)c2snc(C(N)=O)c2N)C(C(=O)NC2CCCC2)c2ccncc2)cc1 (stereo unspecified),-31,·,i,6.7,1,0.71,-4.8
CCOC(=O)C1CN(S(=O)(=O)c2ccccc2)c2cc(S(=O)(=O)CC)ccc2O1 (stereo unspecified),2.4,·,·,0.2,5,0.71,6.4
CC1CCc2sc(C(=O)N3CCN(c4ncccn4)CC3)cc2C1 (stereo unspecified),0.2,·,i,-1.2,0,0.64,0.4
Cc1ccc(N=C2C(=O)Nc3ccc(Br)cc32)cc1,5.4,-5,i,3.1,0,0.66,-3.4
NC(=O)NC(CC(=O)NNC(=O)c1ccccn1)c1ccc(Cl)cc1 (stereo unspecified),-0.5,-14,i,0.7,2,0.67,-39
COc1ccc(C(=O)Nc2c(N)nc(SCC(=O)Nc3ccc(NC(C)=O)cc3)[nH]c2=O)cc1OC,2.2,-16,i,0.0,3,0.74,-2.6
COc1ccccc1NS(=O)(=O)c1cc(NC(=O)c2ccccc2C)ccc1N1CCOCC1,2.7,·,i,0.9,8,0.71,·
N#Cc1cccc(S(=O)(=O)NCC(=O)OCC(=O)c2ccc[nH]2)c1,2.7,0,i,1.9,2,0.72,·
Cc1ccccc1NS(=O)(=O)c1ccc(OCCNS(C)(=O)=O)cc1,-2.7,-12,·,-0.9,-2,0.69,5.4
COc1ccc(C2=C3C(=O)OCC3Cc3ncn(Cc4ccccc4)c32)cc1 (stereo unspecified),2.3,1,i,2.6,-15,0.73,5.0
Cc1nnsc1C(=O)NNC(=O)Nc1ccccc1,5.0,?,i,0.6,5,0.69,-5.5
CC(=O)c1ccc(N2CCN(C(=O)c3ccc(Cn4c(=S)[nH]c5ccc(N6CCOCC6)cc5c4=O)cc3)CC2)cc1,-59,-88,·,4.1,6,0.7,2.4
Cc1ccc(S(=O)(=O)N2CCCCC2)cc1NC(=O)c1ccc2ccccc2n1,1.2,-18,i,-0.9,-1,0.71,0.9
CCOc1ccc2[nH]c(=O)c(CN(CCc3ccccc3)C(=O)c3cnccn3)cc2c1,2.2,-5,·,-0.1,-4,0.71,-5.4
CCOC(=O)C1CCCN(C(=O)c2cccc(S(=O)(=O)N(C)c3ccc(C)cc3)c2)C1 (stereo unspecified),4.3,·,i,-1.5,13,0.65,1.2
CCc1nnc(NC(=O)CN2CCN(CC)CC2)s1,6.4,-4,i,-4.1,1,0.68,-7.2
COc1ccc(-c2cn3cc([N+](=O)[O-])ccc3n2)cc1OC,8.6,·,·,-1.4,-5,0.67,-3.2
Cc1ccc(S(=O)(=O)CCC(=O)N(C)c2c(N)n(Cc3ccccc3)c(=O)[nH]c2=O)cc1,1.6,21,i,3.1,3,0.6,-0.6
CCOC(=O)C1=C(C(=O)OCC)c2ccc(OC)c(OC)c2C1,-5.5,·,i,2.8,30,0.65,·
CC(=O)Nc1ccccc1-c1nc2cc(C#N)c(C#N)cc2[nH]c1=O,-5.1,-6,i,1.2,5,0.65,4.6
Cc1ccc(C)c(N(C(=O)c2csnn2)C(C(=O)NC2CCCC2)c2ccncc2)c1 (stereo unspecified),3.6,-2,i,7.4,2,0.66,1.9
Cc1ccc(Cn2c(C(C)Nc3nc(-c4ccc(C)cc4)cs3)nc3cc(Cl)c(Cl)cc32)cc1 (stereo unspecified),·,-8,·,-44,-1,·,-0.6
O=[N+]([O-])c1ccc(/C=N\NS(=O)(=O)c2ccc(F)cc2)o1,·,-13,i,-1.5,3,·,3.9
COc1ccc(C2CC(c3cccs3)=NN2c2ccc(F)cc2)cc1OC (stereo unspecified),i,-2,i,-3.0,-8,0.68,-1.6
C/C=C/C(=O)OCC(=O)Nc1ccccc1Br,2.1,52,i,2.4,0,0.66,-0.8
COc1ccc(NC(=O)CN(C)CC(=O)Nc2ccc(N3CCOCC3)cc2)c([N+](=O)[O-])c1,2.4,·,i,0.2,0,0.68,·
Cc1ccn2c(=O)nc(SCC(=O)N3CCN(c4ccccc4)CC3)nc2c1,5.7,72,i,-1.2,-5,0.65,4.9
CCN1C(=O)C(O)(CC(=O)C(C)(C)C)c2cc(Br)ccc21 (stereo unspecified),0.9,-5,i,-2.0,7,0.66,-3.5
CC1CCCC(NC(=O)C2CCN(S(=O)(=O)N3CCCCCC3)CC2)C1C (stereo unspecified),2.1,-3,·,0.8,-5,0.72,-0.7
CCN(CC)c1ccc2c(Cl)cc(=O)oc2c1,-78,12,·,·,·,0.69,3.4
COc1cc(C(=O)Nc2cccc3cccnc23)cc(OC)c1OC,3.5,·,·,5.0,6,0.74,-6.3
Cc1cc(CNC(=O)CC2C(=O)NCCN2CC(C)(C)C)nn1C (stereo unspecified),-6.1,-22,i,-2.5,-1,0.7,-0.1
O=C(c1ccc(Cl)cc1)C1CCCN(C(=O)c2csnn2)C1 (stereo unspecified),0.5,-5,i,4.0,-8,0.7,-3.2
COc1cc([N+](=O)[O-])cc(/C=N\NC(=O)C2COc3ccccc3O2)c1O (stereo unspecified),·,36,i,-1.1,-7,·,-0.8
COC(=O)c1ccccc1NC(=O)c1cc(-c2cccs2)on1,1.1,-12,i,4.8,0,0.67,2.3
Cc1onc(-c2ccccc2)c1C(=O)Nc1ccncc1,1.7,·,·,-2.2,3,0.66,0.0
CCOC(=O)C1CCN(C(=O)c2ccc(N3CCCC3=O)cc2)CC1,-1.4,·,i,3.5,2,0.64,1.4
N#CC(C#N)=C(Nc1ccc(F)cc1)SCc1cccc(F)c1,1.3,-1,·,13,12,0.67,-2.4
CCN(CC)c1ccc(C=NCCNS(=O)(=O)c2ccc(C)cc2)cc1,13,31,i,0.7,-4,0.7,0.7
O=C(CCNC(=O)c1ccc(Br)cc1)OCc1ccccc1Cl,3.0,5,i,-7.4,9,0.68,4.5
N#Cc1ccc(CN2CCN(C(=O)CN3C(=O)NC4(CCCC4)C3=O)CC2)cc1,3.3,·,i,-1.8,-6,0.69,·
O=C(NC(=S)Nc1ccc(N2CCOCC2)cc1)c1ccc2c(c1)OCCO2,2.8,14,·,2.1,1,0.68,0.9
Cc1cccc(NC(=S)Nc2ccc(N3CCOCC3)cc2)c1C,0.6,99*,·,-1.4,6,0.71,1.6
COc1cc(OC)cc(C(=O)Nc2ccccc2-c2nnn(CC(=O)Nc3cc(C)on3)n2)c1,1.8,-4,i,0.5,-8,0.68,2.2
N[C@@H](CO)c1nnc([C@H](CC(=O)O)NC(=O)C2CCNCC2)o1,1.2,9,i,-3.2,-1,·,1.1
# Remaining list, next part:
SMILES,UCH37 inh,ALR H2O2 inh,FGF22 binding,HNF4A DNA FP,B2AR ag,Ecoli growth,LANA-H2A inh
COc1ccc(CNC(=O)c2ccc(SC)cc2OC)cc1,3.8,·,·,2.7,-12,0.65,·
O=C(CCC1CCCN(Cc2ccc3c(c2)OCCO3)C1)NCc1ccccc1F (stereo unspecified),3.5,2,i,0.4,5,0.68,3.7
Cc1sc2nc3c(C(=O)N4CCCC4)cc(C(=O)c4ccccc4O)cn3c(=O)c2c1C,6.4,1,i,1.6,-14,0.68,-1.4
COc1ccc(OC)c(/C=C/C(=O)N2CCCc3ccccc32)c1,3.3,-4,i,-3.3,12,0.67,3.8
COc1ccc(OC)c(CNn2c(-c3cccc(C)c3)nc3ccccc3c2=O)c1,1.2,·,·,0.4,-5,0.66,0.0
Cc1ccccc1S(=O)Cc1ccc(C(=O)N2CCN(C(=O)c3ccco3)CC2)o1 (stereo unspecified),-0.2,-6,i,0.7,-9,0.68,-0.9
COc1cc(/C=N\NC(=O)CC#N)ccc1OC/C=C/c1ccccc1,·,-11,i,-0.5,10,·,-3.1
COc1cc(/C=N/NC(N)=S)ccc1OCC(=O)N1CCOCC1,·,·,i,-0.8,-2,·,·
CCN(C(=O)c1cccnc1)c1ccccc1,0.3,-2,·,3.3,3,0.7,-5.5
COc1ccc(CCNC(=O)COc2ccc(C)nc2[N+](=O)[O-])cc1,3.7,·,·,6.0,-14,0.62,3.0

# Reformatted: entries from further up
UCH37 inh	ALR H2O2 inh	FGF22 binding	HNF4A DNA FP	B2AR ag	Ecoli growth	LANA-H2A inh	SMILES
3.8	·	·	2.7	-12	0.65	·	COc1ccc(CNC(=O)c2ccc(SC)cc2OC)cc1
1.2	·	·	0.4	-5	0.66	0.0	COc1ccc(OC)c(CNn2c(-c3cccc(C)c3)nc3ccccc3c2=O)c1
3.5	2	i	0.4	5	0.68	3.7	O=C(CCC1CCCN(Cc2ccc3c(c2)OCCO3)C1)NCc1ccccc1F (stereo unspecified)
0.3	-2	·	3.3	3	0.7	-5.5	CCN(C(=O)c1cccnc1)c1ccccc1
6.4	1	i	1.6	-14	0.68	-1.4	Cc1sc2nc3c(C(=O)N4CCCC4)cc(C(=O)c4ccccc4O)cn3c(=O)c2c1C
·	·	i	-0.8	-2	·	·	COc1cc(/C=N/NC(N)=S)ccc1OCC(=O)N1CCOCC1

# The list continues.
SMILES,UCH37 inh,ALR H2O2 inh,FGF22 binding,HNF4A DNA FP,B2AR ag,Ecoli growth,LANA-H2A inh
Cc1cccc(N2CCN(C(c3ccncc3)c3nnnn3C(C)(C)C)CC2)c1C (stereo unspecified),4.7,-2,i,2.1,-1,0.72,3.3
COc1ccc(CNC(=O)C(C)NS(=O)(=O)c2ccc(C)cc2)cc1 (stereo unspecified),1.7,·,i,-1.1,2,0.69,3.5
COc1ccc(C(=O)/C=C/c2ccc(C)cc2)c(OC(=O)c2ccc([N+](=O)[O-])cc2)c1,1.7,3,·,5.1,1,0.75,-0.5
CCOC(=O)c1c(C)[nH]c(C(=O)OCC(=O)N(CC)c2c(N)n(Cc3ccccc3)c(=O)[nH]c2=O)c1C,2.3,·,i,3.8,-1,0.71,·
NC(=O)c1ccsc1NC(=O)COC(=O)c1cc(Cl)ccc1O,-10,-1,i,-1.5,-1,0.72,5.9
Cc1ccccc1CC(=O)N1CC(C)OC(C)C1 (stereo unspecified),1.0,-5,i,4.2,5,0.68,3.1
CCn1cc(C(=O)NCc2ccc3c(c2)OCO3)c2cc(OC)c(OC)cc2c1=O,-0.2,-8,·,1.8,-6,0.72,3.7
N#CCSc1nc2ccccc2c(=O)n1C1CCCCC1,4.0,·,·,2.2,-11,0.7,-6.0
O=C(NNC1OC(CO)C(O)C(O)C1O)c1cccnc1 (stereo unspecified),2.9,3,i,-3.9,-6,0.69,0.7
Cc1cccc(/C=C2\Oc3cc(OS(C)(=O)=O)ccc3C2=O)c1,2.9,·,i,-3.0,1,0.73,-3.8
N#Cc1ccccc1COC(=O)c1cc(=O)c2ccccc2o1,0.7,-16,i,-0.6,3,0.69,3.3
COc1ccc(N(C(=O)Cn2nnc(-c3ccc(Cl)cc3)n2)C(C(=O)NCC2CCCO2)c2ccncc2)cc1 (stereo unspecified),2.4,-7,i,0.7,-8,0.7,-7.2
Cc1cc(C(=O)N/N=C/c2cccnc2)c(C)o1,·,4,·,-1.7,2,·,3.7

# Bioassay records from PubChem BioAssay.
